Source: PubChem
Sa ugtP lethal = growth inhibition of ugtP-null S. aureus, primary screen, RN4220 ugtP deletion, OD600. growth inhibition, % (concentration not given with the values). 16 h; some inactives read as strong as hits. 0.54% of 330,000 active;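 active = z-score under -3 and OD600 up to 0.15 on both plates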;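 also: plate controls were untreated wells for no effect and antibiotic for full effect; wells of about 80 µL received 100 nL stock; the first replicate is given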
PrP UTR inh = inhibition of PrP 5' UTR reporter expression; AID 488862, 2010; 0.35% of 340,000 active; inhibition, % (concentration not given with the values); cell-based PrP 5' UTR mRNA reporter, plate reader;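 active = every replicate at 50% or more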;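 also: 0 = median of the neutral control wells; tested in H4 reporter cells; numbers are from one replicate; inactives centre near -14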
Mtb hypoxia rep = PubChem AID 1159583; M. tuberculosis hypoxia-regulated fluorescent reporter, fluorescence; fluorescence inhibition, % (test concentration not listed); 0.1% of 300,000 active;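 active = 35 to 45% if threefold the growth effect, above 45% if 1.5-fold the growth effect; inactive = the rest, general growth blockers included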;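 also: wells of about 50 µL received 100 nL stock; 0% = vehicle wells and 100% = reference inhibitor wells; whole bacteria with a GFP reporter of the hypoxia response; strong numbers were not always called active; many hits fall short of the cut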
Sa RN4220 lethal = growth inhibition of S. aureus RN4220, primary screen, OD600; 16 h; inhibition, % (concentration not given with the values); 0.33% of 330,000 active; AID 1259311, 2017;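 active = z-score of -3 or lower and OD600 up to 0.18 on both plates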;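 also: plate controls were untreated cells for no effect and reference antibiotic for full effect; stock transfer was 100 nL into about 80 µL; one replicate is shown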
BJeLR lethal = MLPCN primary cell-based screen for lethality selective to Ras in HRASV12 cells. 0.17% of 300,000 active. AID 1554, 2009. inhibition, % (no concentration beside the values). BJeLR (HRASV12) viability, CellTiter-Glo ATP luminescence, 48 h; reference of the scale not given here;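 active = replicate mean above 50%; inconclusive = above 50% but judged a plate artefact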;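 also: 50 nL library stock added to about 25 µL; numbers are from one replicate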
Autofluor counter = flagged as autofluorescent in microsphere protease counterscreen. compound autofluorescence counterscreen, microsphere flow cytometry; active compounds read high. 3.1% of 360,000 active. fluorescence intensity (no concentration beside the values). AID 624483;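 active = at least 3 SD above the mean of all compounds, about 16000 in these data; inconclusive = too few beads counted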;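 also: 100 nL of 1 mM stock went into each well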
Mtb hypoxia rep growth = also measured in Mtb hypoxia rep; calls as there; growth inhibition, %; measured here: M. tuberculosis growth (absorbance);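 0% = vehicle and 100% = reference antibiotic; read after six days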
The depositor's hits bear a star; ? = inconclusive; . = no result given; & = joins results of further samples.

SMILES	Sa ugtP lethal	PrP UTR inh	Mtb hypoxia rep	Mtb hypoxia rep growth	Sa RN4220 lethal	BJeLR lethal	Autofluor counter
O=C(CC(c1ccccc1)c1cc(Cl)ccc1O)N1CCCC1 (stereo not drawn)	2	-17	-5	6	3.0	-15	3956
CN1C(C(=O)NCC2CC2)CC2Cn3c(nc4cc5ccccc5cc43)C21 (stereo not drawn)	6	-12	10	2	5.1	6	4187
O=C(COc1cccc2ccccc12)Nc1ccc(Cl)cc1C(=O)O	47	-15	3	3	51	-3	6107
CN(C)C=Nc1cc(=O)[nH]c(=O)n1C	-1	.	19	8	8.5	.	.
Cc1ccc(C)c(OCCC(=O)NCCc2ccc(S(N)(=O)=O)cc2)c1	2	-19	4	2	6.3	-10	4159
CCCCCCCCCCCCCCCCn1cc[n+](C)c1	99*	-24	12	15	101*	16&0	1946
Cc1ccc(NC(=O)c2ccc([N+](=O)[O-])s2)cc1S(=O)(=O)N1CCOCC1	7	.	0	-1	11	.	.
CCS(=O)(=O)N1CCN(c2cnn(-c3ccccc3)c(=O)c2Cl)CC1	4	-12	3	-9	1.6	-1	4186
O=C(COC(=O)CNC(=O)c1cccs1)Nc1ccc(C(F)(F)F)cc1[N+](=O)[O-]	2	-2	4	9	11	-4	?
CCOC(=O)c1c(C)nc2sc(C(=O)Nc3ccc(OC)cc3)c(N)c2c1-c1ccc(OC)cc1	10	-32	1	7	5.0	28	3377
O=C(Nc1nc(-c2ccccn2)cs1)c1cc(Cl)ccc1[N+](=O)[O-]	10	26	1	16	38	25	4172
CCN1C(=O)/C(=C/c2ccc(N(CC)CC)cc2OC)C(=O)NC1=S	16	-13	11	8	-0.6	10	5911
COc1ccc(OC)c(C(O)=CC(=O)C(=O)Nc2cc(C)ccc2OC)c1	1	.	1	13	2.6	.	.
Cc1ccc(C)c(Cc2c(C)nc3c(C(=O)N4CCOCC4)cnn3c2C)c1	-7	-18	-12	12	-1.0	5	22707*
O=C1CCCN1CC(O)CS(=O)(=O)Cc1ccc(Cl)cc1 (stereo not drawn)	4	.	9	2	4.9	4	.
CCCCn1c(N)c(N(CC(C)C)C(=O)COC(=O)C2(c3ccccc3)CC2)c(=O)[nH]c1=O	3	-22	6	-1	0.8	4	5733
CC(CC(=O)Nc1ccc(Cl)cc1C(F)(F)F)=NNC(=O)c1cccs1	-4	.	1	1	1.2	.	.
O=C(N/N=C/c1ccncc1)NC1CCCCC1	.	-5	.	.	.	2	3301
COc1ccc2nc(NC(=O)CSc3nnc(C)n3N)sc2c1	9	-78	10	-6	3.4	9	4709
CSc1nc(N)c2c(n1)N(C)C=NS2(=O)=O	1	-13	5	4	2.2	.	3770

Part of the list above, with two lines to a compound:
Value order – Sa ugtP lethal, PrP UTR inh, Mtb hypoxia rep, Mtb hypoxia rep growth, Sa RN4220 lethal, BJeLR lethal, Autofluor counter
- O=C1CCCN1CC(O)CS(=O)(=O)Cc1ccc(Cl)cc1 (stereo not drawn)
 : 4, ., 9, 2, 4.9, 4, .
- CCCCn1c(N)c(N(CC(C)C)C(=O)COC(=O)C2(c3ccccc3)CC2)c(=O)[nH]c1=O
 : 3, -22, 6, -1, 0.8, 4, 5733
- CC(CC(=O)Nc1ccc(Cl)cc1C(F)(F)F)=NNC(=O)c1cccs1
 : -4, ., 1, 1, 1.2, ., .
- O=C(N/N=C/c1ccncc1)NC1CCCCC1
 : ., -5, ., ., ., 2, 3301
- COc1ccc2nc(NC(=O)CSc3nnc(C)n3N)sc2c1
 : 9, -78, 10, -6, 3.4, 9, 4709

Carrying on.
SMILES	Sa ugtP lethal	PrP UTR inh	Mtb hypoxia rep	Mtb hypoxia rep growth	Sa RN4220 lethal	BJeLR lethal	Autofluor counter
O=S(=O)(NCC1CN(S(=O)(=O)c2ccc3c(c2)OCCO3)C1)c1c(F)cccc1F	1	-17	-4	9	17	.	3474
O=C(Nc1ccc(Cl)cc1N1CCOCC1)C1CC1	4	-8	6	-7	1.0	-5	4173
CC(C)(C)C1COC(=O)C(Cc2ccc(F)cc2)CC=CCC(CC(=O)NCCO)C(=O)N1 (stereo not drawn)	-1	.	1	2	4.4	.	.
Cc1ccc(-n2nnnc2SCC(=O)c2cc(C)n(CC3CCCO3)c2C)cc1 (stereo not drawn)	22	-18	9	7	11	9	5696
CC(=NNC(=O)c1cccc(NN=C(C)c2ccco2)c1)c1ccco1	-17	.	4	6	5.3	.	.
COC(=O)c1ccccc1NC(=O)C(C)c1ccc([N+](=O)[O-])cc1 (stereo not drawn)	12	64*	13	8	2.0	-1	2144
CCC(C(=O)Nc1cc(F)ccc1F)n1nc(C)c2c(C)n(-c3ccc(C)cc3)nc2c1=O (stereo not drawn)	10	-19	6	3	-0.9	12	5375
O=C(CCc1ccccc1F)N1CCN(c2ccc(C(F)(F)F)cn2)CC1	.	-25	.	.	.	-12	3893
O=C(c1ccccc1)n1c(=S)nc2ccccn21	-7	-1	10	5	3.0	6	.
O=C(Nc1nc2c(F)cc(F)cc2s1)C1CC1	9	-31	5	4	8.9	-9	4996
CN(Cc1ccccc1)C(=O)c1[nH]cnc1C(=O)NCC(=O)OCc1ccccc1	5	-17	8	9	6.3	0	3045
COCn1cnc(-c2ccccc2)c1-c1ccccc1	3	-18	13	9	3.7	-6	3148
CCOC(=O)C1=C(C)NC(=S)NC1c1ccc(OCC(=O)N2CCCCCC2)c(OC)c1 (stereo not drawn)	0	-11	-4	0	5.2	-11	4782
Cc1cccc(COc2ccccc2C=NNc2ccc([N+](=O)[O-])cc2)c1	-23	.	2	2	-3.5	.	.
CCOC(=O)CCC(=O)N1CCOCCOCCOCC1	11	-19	11	5	2.7	2	8676
O=C(NCc1ccco1)c1nc2c(nnn2Cc2ccccc2Cl)c(=O)[nH]1	-13	-12	-3	7	6.9	-3	9232
Cc1cnc([N+](=O)[O-])n1CCOC(=O)NC(=O)c1ccccc1	4	-15	-2	6	6.5	-5	4393
Cc1ccsc1/C=C(\C#N)C(=O)NCc1cccnc1	0	-5	2	10	6.2	4	2279
CCn1c(=O)cc(SCC(=O)NCc2ccc3c(c2)OCO3)c2ccccc21	-5	-15	-8	5	-0.7	-4	23392*
COC(=O)[C@H](Cc1ccccc1)NC(=O)N1CCN(c2ccccc2)CC1	6	-13	-5	2	3.0	-5	3497
CCCC(=O)N(CCN(Cc1ccccc1)C(=O)CCC)Cc1ccccc1	-1	3	.	.	0.7	5	5817
O=C(CN(Cc1ccco1)C(=O)c1ccc(F)cc1)Nc1ccccc1Br	3	-9	6	4	2.5	.	.
COc1ccc(N(C(=O)C2CCCCC2)S(=O)(=O)c2cccc3cccnc23)cc1	32	-15	3	4	-0.1	-4	3698
O=C1CN(C(=O)CN2CCOCC2)C(c2ccccc2)c2cc(Br)ccc2N1 (stereo not drawn)	-12	-13	-11	8	6.1	-2	6932
Cc1ccc(C(=O)N(c2ccccn2)C(C)c2ccco2)cc1C (stereo not drawn)	0	-41	11	7	6.7	-3	21171*
CCOC(=O)C1C(=O)OC(C)(C)C1C(C)C(=O)c1ccc(C)cc1 (stereo not drawn)	6	-11	8	8	1.6	9	5319
N#Cc1ccc(-c2ccc(OCC(O)CN3CCOCC3)cc2)cc1 (stereo not drawn)	3	-19	8	8	2.8	3	2297
CCc1nn(CC(=O)N2CCN(c3ccc(F)cc3)CC2)c(=O)c2cc3occc3n12	-5	-17	9	1	1.8	8	6148
Cc1ccc(S(=O)(=O)N2CCN(C(=O)c3cc4c(C)nn(-c5ccccc5C)c4s3)CC2)cc1	-5	-10	-1	2	-2.3	9	2572
Cn1cc(C(=O)N2CCN(c3ccccc3)CC2)c(=O)c2cc(S(=O)(=O)N3CCCC3)ccc21	0	-17	-17	-12	-1.8	-1	4496
Oc1ccc(C=NN=C(c2ccccc2)c2ccccc2)c(O)c1O	20	.	4	0	-3.7	.	.
Cc1ccc(NC2=Nc3ccccc3N3C2=Nc2c(c(C)nn2-c2ccccc2)C3c2ccc(O)c(O)c2)cc1 (stereo not drawn)	98*	1	-9	-2	69	.	2663
CCCN1CC(C)C(OC(C)=O)(c2ccccc2)CC1C (stereo not drawn)	-5	-2	15	10	-8.9	1	2815
Cc1ccc(CNC(=O)C(C)OC(=O)c2cccs2)cc1 (stereo not drawn)	-1	-12	6	4	3.1	1	4236
O=C(C1=C[C@H](C2CCCCC2)C[C@H](OCCCCO)O1)N1CCN(Cc2ccccc2)CC1	.	-7	.	.	.	4	3914
CC(=O)c1sc(NC(=O)c2ccc(F)c(S(=O)(=O)N3CCOCC3)c2)nc1C	2	-14	5	-11	0.5	.	8717
COc1cc(Nc2ccc(C(=O)O)cc2[N+](=O)[O-])cc(OC)c1	7	-7	4	6	4.4	6	2024
COc1cccc(C(=O)C(=O)c2cccc(OC)c2OC)c1OC	4	-13	17	8	1.0	.	4203
Cc1ccc2nc3c(cc(C(=O)NCC4CCCO4)c(=N)n3C3CCCC3)c(=O)n2c1 (stereo not drawn)	-3	-10	-7	-4	-2.5	-2	4797
CCCCN(CCCC)NC(=O)c1ccccc1	9	-7	17	11	1.8	9	6150
CC1Cc2ccccc2N1C(=O)c1cc2c(=O)n3ccccc3nc2n1C (stereo not drawn)	-4	-13	2	15	4.5	5	9347
Cc1ccccc1Nc1scc(-c2ccc(Cl)cc2)[n+]1-c1ccccc1C	76	-24	-12	-5	-9.3	0	2508
COc1ccc(NC(=O)[C@@H]2CCCN2S(=O)(=O)c2ccc(Cl)cc2)cc1	6	-6	5	5	0.0	.	3209
CC(C)(C)c1ccc(C(=O)C2CCCN(C(=O)C3CCOCC3)C2)cc1 (stereo not drawn)	-2	4	8	4	5.5	-9	4781
Cc1ccc(S(=O)(=O)N2CCCCC2)cc1NC(=O)[C@@H]1CCCN1C(=O)c1cccs1	-4	-10	-1	5	-2.8	.	3834
Cc1ccc(C)c(OCCSc2nnc(-c3cccnc3)n2N)c1	-1	-19	13	4	1.8	-27	4023
CCCCOc1ccc(C2C(C(=O)c3ccc(C)o3)=C(O)C(=O)N2CC2CCCO2)cc1 (stereo not drawn)	1	-2	.	.	3.6	-5	2461
COCCN1C=C2C(=O)C(C)(OC(=O)C3CCCC3)C(=O)C=C2C=C1c1ccsc1 (stereo not drawn)	0	-24	15	10	3.3	-5	2791
Cc1cccc(C=CC(=O)c2ccccc2)c1	-1	-107	12	24	8.9	.	3998
Nn1c(=O)[nH]c2ccccc2c1=O	1	-15	.	.	-0.5	-12	5273
O=C(Nc1cc2c(cc1Br)OCCCO2)c1ccccc1	-5	-97	0	-2	6.9	2	7918
COc1ccccc1OCc1nn[nH]n1	5	-51	5	-2	0.1	8	3850
Cc1ccc(-n2nnnc2SCC(=O)NC2CC2)cc1C	1	-24	13	2	3.7	5	6007
CCCC(=O)c1c(O)[nH]c(=O)[nH]c1=O	0	-20	-1	-2	0.6	-2	22341*
COC(=O)c1nn(-c2ccc(Oc3ccccc3)cc2)c(=O)cc1O	3	-14	4	-1	9.3	2	3287
COc1ccccc1-n1c(O)c(C=NC2CC2)c(=O)[nH]c1=O	-1	-22	7	12	-1.3	-4	?
Cc1cc(C)n(C(CC(=O)O)C(=O)O)n1 (stereo not drawn)	0	-12	2	3	0.9	-2	3711
C=C(C)CSc1nnc(CCNC(=O)OC(C)(C)C)o1	7	-8	25	23	2.6	8	8587
COc1ccc(C(C)=O)cc1COC(=O)c1cnc(C)cn1	-8	-29	-4	-7	0.5	3	9942
CCCS(=O)(=O)Nc1cccc(-c2nc3cccnc3s2)c1	7	-11	7	-1	7.2	-20	4032
Continued.
SMILES	Sa ugtP lethal	PrP UTR inh	Mtb hypoxia rep	Mtb hypoxia rep growth	Sa RN4220 lethal	BJeLR lethal	Autofluor counter
CCN(CCCNC(=O)Cn1ncc2c([nH]c3ccccc32)c1=O)Cc1ccccc1	3	-10	-2	-6	3.2	0	7563
COc1ccc([N+](=O)[O-])cc1NCc1ccccc1C	-11	-38	-16	-2	-6.0	-4	12855
CC(C)(C)OC(=O)NC1CCN(S(=O)(=O)c2ccc3c(c2)OCCO3)CC1	7	-26	.	.	0.6	-6	4455
CSc1nsc(SCC(=O)Nc2ccc(NC(C)=O)cc2)n1	-4	-18	12	-2	2.7	-2	3621
Cc1ccc2nc(SCC(=O)NCc3ccco3)[nH]c2c1	-1	-12	3	8	4.5	-7	7975
